Screening results as filed in PubChem BioAssay.
DENV2 CPE rescue = DENV2-induced cell death inhibition; DENV2-infected cells, cytopathic effect rescue, plate reader; CPE inhibition, % at 9.99 µM; 350,000 compounds, 1.7% hits; AID 651640; in the data active = CPE inhibition above about 20%, passing the limit was not always enough; inconclusive = no clear call, values can overlap the other calls; tested in BHK-21 cells;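 note: 0% = median of neutral control wells and 100% = median of positive control wells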
SIRT5 inh = inhibitors of human sirtuin-5 desuccinylase; Purified SirT5, succinyl-peptide AMC, trypsin-coupled fluorescence; inhibition, % at 15 µM; 330,000 compounds, 1.1% hits; AID 652115; in the data active = inhibition above about 15%; inconclusive = no clear call, values can overlap the other calls
Target sequence (Q9NXA8 whole entry, looked up): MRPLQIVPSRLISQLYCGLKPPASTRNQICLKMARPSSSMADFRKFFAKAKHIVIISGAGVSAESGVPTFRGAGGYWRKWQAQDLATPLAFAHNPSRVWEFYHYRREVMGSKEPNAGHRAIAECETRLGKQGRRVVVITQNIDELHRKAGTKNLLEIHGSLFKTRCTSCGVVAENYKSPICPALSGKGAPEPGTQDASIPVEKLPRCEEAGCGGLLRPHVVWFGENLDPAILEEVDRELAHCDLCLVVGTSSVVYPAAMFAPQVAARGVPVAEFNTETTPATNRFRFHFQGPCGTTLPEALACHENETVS
LGR2 inh = blocks bursicon-induced cAMP signaling via Drosophila LGR2; HEK293 LGR2, CRE-luciferase, bursicon-stimulated, 4 h; inhibition, % at 9.99 µM; 380,000 compounds, 0.35% hits;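 active = drop in luminescence signal, shown as inhibition above about 50% in the replicate tests, limit read from the data, passing the limit was not always enough; inconclusive = probably only some replicates passing the limit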;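 note: agonist challenge used bursicon conditioned medium at about half maximal strength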
EWS-Fli inh = EWS/Fli transcriptional activity inhibition; A673 NR0B1-luciferase reporter, viability-normalised; inhibition, % at 12.6 µM; 350,000 compounds, 0.67% hits; AID 651661;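 active = mean inhibition of at least 50% after viability correction, with every replicate also passing that limit; inconclusive = mean reaches 50% but only one of two replicates passes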;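 note: firefly luciferase signal divided by Alamar Blue viability fluorescence both relative to DMSO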
* hit, by the source's call; ? = inconclusive; nt = no result given; & = joins results of further samples. Some of the compounds tested; rates above refer to the full screens.

1) O=c1c(O)c(-c2cc(O)c(O)c(O)c2)oc2cc(O)cc(O)c12
2) O=C(O)COCCN1CCN([C@H](c2ccccc2)c2ccc(Cl)cc2)CC1
3) CC(C)[N+]1(C)[C@@H]2CC[C@@H]1CC(OC(=O)C(CO)c1ccccc1)C2 (some centres undefined)
4) COc1c(N2C[C@@H]3CCCN[C@@H]3C2)c(F)cc2c(=O)c(C(=O)O)cn(C3CC3)c12
5) CC(=O)OCC1=C(C(=O)O)N2C(=O)[C@@H](NC(=O)CSc3ccncc3)[C@H]2SC1
6) O=C(O)CCNC(=O)c1ccccc1
7) CCc1nc(N)nc(N)c1-c1ccc(NCCN)c([N+](=O)[O-])c1
8) CC(C)(C(=O)O)c1ccc(C(O)CCCN2CCC(C(O)(c3ccccc3)c3ccccc3)CC2)cc1 (centres undefined)
9) COC(=O)C1=C(C)NC(C)=C(C(=O)OCCN(C)Cc2ccccc2)C1c1cccc([N+](=O)[O-])c1 (centres undefined)
10) COc1ccc(S(=O)(=O)N2CCN(C(=O)C3COc4ccccc4O3)CC2)cc1 (centres undefined)

Screen / compound no.,1,2,3,4,5,6,7,8,9,10
EWS-Fli inh,-10,-1,-9,-1,8,-3,45,-4,11,15
LGR2 inh,nt,-3,10,4,-27,-6,-15,-18,21,12
DENV2 CPE rescue,8,18,7,-3,3,7,-10,4,4,3
SIRT5 inh,1,6,0,-17,0,0,-1,1,-1,2

Some of these compounds in order of molecular weight, largest number first:
8) CC(C)(C(=O)O)c1ccc(C(O)CCCN2CCC(C(O)(c3ccccc3)c3ccccc3)CC2)cc1 (centres undefined)
5) CC(=O)OCC1=C(C(=O)O)N2C(=O)[C@@H](NC(=O)CSc3ccncc3)[C@H]2SC1
4) COc1c(N2C[C@@H]3CCCN[C@@H]3C2)c(F)cc2c(=O)c(C(=O)O)cn(C3CC3)c12
2) O=C(O)COCCN1CCN([C@H](c2ccccc2)c2ccc(Cl)cc2)CC1
7) CCc1nc(N)nc(N)c1-c1ccc(NCCN)c([N+](=O)[O-])c1

Screen / compound no.,8,5,4,2,7
EWS-Fli inh,-4,8,-1,-1,45
LGR2 inh,-18,-27,4,-3,-15
DENV2 CPE rescue,4,3,-3,18,-10
SIRT5 inh,1,0,-17,6,-1

Next section.
11) Cc1cnc(NC(=O)C2=C(O)c3ccccc3S(=O)(=O)N2C)s1
12) CN1C2CCC1CC(OC(=O)C(CO)c1ccccc1)C2 (centres undefined)
13) Nc1ccc(OCCc2ccccc2)cc1
14) C[C@H](C(=O)O)c1cccc(C(=O)c2ccccc2)c1
15) CCCC(=O)Nc1ccc(OCC(O)CNC(C)C)c(C(C)=O)c1 (centres undefined)
16) CN/C(=C/[N+](=O)[O-])NCCSCc1ccc(CN(C)C)o1
17) Cc1cnc(NC(=O)C2C(=O)c3ccccc3S(=O)(=O)N2C)s1 (centres undefined)
18) COc1ccc(CC(=O)Nc2nc3ccccc3[nH]2)cc1

Screen / compound no.,11,12,13,14,15,16,17,18
EWS-Fli inh,-5&-3&7&-4,-8,-30,-10,-5,-6,-5,-13
LGR2 inh,4&6&-14,8,nt,0,-6,8,-28,8
DENV2 CPE rescue,?,-6,1,4,10,4,16,10
SIRT5 inh,4&1&8&-1,-4,0,9,1,-3,0,-1

Reprinted at random: two entries already listed, in no set order.
11) Cc1cnc(NC(=O)C2=C(O)c3ccccc3S(=O)(=O)N2C)s1
14) C[C@H](C(=O)O)c1cccc(C(=O)c2ccccc2)c1

Screen / compound no.,11,14
EWS-Fli inh,-5&-3&7&-4,-10
LGR2 inh,4&6&-14,0
DENV2 CPE rescue,?,4
SIRT5 inh,4&1&8&-1,9
